Bioassay records deposited in PubChem by Broad Institute.
MLL AF4-AF9 inh: inhibitors of human MLL-AF4/AF9 interaction | P42568 | AlphaScreen, biotin-AF4 peptide binding to FLAG-AF9 | inhibition, % at 10 µM | hit rate 0.47% among 350,000;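 active = every replicate reaching a set inhibition limit, whatever the replicate mean, cut at about 25% in these data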;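 also: 0% = plate neutral control median and 100% = total signal loss; the record names both 10 and 1 µM as test concentration; the first replicate is given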
Target sequence (P42568 whole entry, looked up): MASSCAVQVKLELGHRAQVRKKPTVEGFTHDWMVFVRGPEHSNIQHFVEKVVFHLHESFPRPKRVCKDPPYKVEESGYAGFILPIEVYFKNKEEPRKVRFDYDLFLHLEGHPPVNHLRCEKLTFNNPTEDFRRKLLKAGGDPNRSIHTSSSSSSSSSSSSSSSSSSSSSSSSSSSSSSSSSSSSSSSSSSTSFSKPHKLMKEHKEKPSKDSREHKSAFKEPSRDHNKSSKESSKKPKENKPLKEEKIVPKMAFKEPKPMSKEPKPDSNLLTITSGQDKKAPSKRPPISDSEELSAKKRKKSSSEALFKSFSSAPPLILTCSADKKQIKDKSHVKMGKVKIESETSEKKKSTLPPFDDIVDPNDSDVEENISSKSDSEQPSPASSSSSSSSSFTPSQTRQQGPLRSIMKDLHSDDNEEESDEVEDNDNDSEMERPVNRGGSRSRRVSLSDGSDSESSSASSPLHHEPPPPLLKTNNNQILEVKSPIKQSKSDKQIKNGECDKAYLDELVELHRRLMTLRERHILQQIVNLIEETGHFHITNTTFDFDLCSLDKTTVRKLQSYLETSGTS
An asterisk follows results filed as active; & = joins results of further samples.

SMILES	MLL AF4-AF9 inh
CCCC(=O)N1CC2(C1)CN(Cc1ccccc1F)[C@H](CO)c1c2c2ccc(OC)cc2n1C	-0.4
C#CCNC(=O)C[C@@H]1C[C@@]2(C(=O)OCC)CCCC=C2N(Cc2ccco2)C1=O	-0.1
C[C@@H]1CCCCO[C@@H](CN(C)S(=O)(=O)c2cccs2)[C@H](C)CN([C@@H](C)CO)C(=O)c2cc(NC(=O)Nc3ccc(F)cc3)ccc2O1	-2.7
CO[C@@H]1CN(C)C(=O)c2ccc(NC(C)=O)cc2OC[C@H](C)N(Cc2ccccn2)C[C@H]1C	-2.0
c1ccc(-c2ccc(C3[C@H]4CNC[C@@H]3N4Cc3ccccn3)cc2)cc1 (stereo not given in full)	3.0&4.4
C[C@@H]1CN([C@@H](C)CO)C(=O)c2cc(NC(=O)C3CCCCC3)ccc2O[C@@H](C)CCCCO[C@H]1CN(C)Cc1ccccc1	6.7
COc1ccc2c3c([nH]c2c1)[C@H](CO)N(C(=O)NC(C)C)CC31CCN(C(=O)NC(C)C)CC1	-0.6
N#C[C@H]1[C@H](c2ccc(C3=CCCCC3)cc2)[C@H](CO)N1C(=O)CN1CCOCC1	3.0
C[C@H]1CN([C@@H](C)CO)C(=O)c2cc(NC(=O)CCN3CCOCC3)ccc2O[C@@H]1CN(C)Cc1ccncc1	-1.6
O=C1C(=Cc2ccccc2Cl)CCc2ccccc21	3.6
COc1ccc(S(=O)(=O)N(C)C[C@H]2OCCCC[C@@H](C)Oc3ccc(NC(=O)Nc4ccc(F)cc4)cc3C(=O)N([C@@H](C)CO)C[C@@H]2C)cc1	-1.8
CC(C)OC(=O)N(C)C[C@H]1OCc2cnnn2CCCC(=O)N([C@@H](C)CO)C[C@@H]1C	-1.4
O=C(NCc1ccc2c(c1)OCO2)[C@H]1[C@H](CO)[C@H]2Cn3c(cccc3=O)[C@@H]1N2Cc1ccccc1	-1.4
CS(=O)(=O)N1CC(=O)N2[C@@H](CO)[C@H](c3ccc(C#Cc4cccc(F)c4)cc3)[C@@H]2C1	-2.5
C/C=C/c1ccc2c(c1)O[C@H](CN(C)C(=O)c1ccc(F)cc1)[C@@H](C)CN([C@@H](C)CO)S2(=O)=O	-1.0
O=S(=O)(NCC[C@H]1CC[C@@H](NS(=O)(=O)c2cccc(Cl)c2)[C@H](CO)O1)c1cccc(F)c1	0.2
CN1CCN(C(=O)C[C@H]2C[C@H]3c4cc(NS(C)(=O)=O)ccc4O[C@H]3[C@H](CO)O2)CC1	-1.1
CC(=O)NCCNC(=O)C1(C)Cc2c(-c3cccc(C(F)(F)F)c3)ccnc2O1 (stereo not given)	-1.2
C[C@@H]1CCCCO[C@@H](CN(C)CC2CCCCC2)[C@H](C)CN([C@@H](C)CO)C(=O)c2cc(NC(=O)Nc3ccc(F)cc3)ccc2O1	-3.5
CO[C@@H]1CN(C)C(=O)c2cc(NC(=O)C3CCCC3)ccc2OC[C@H](C)N(C)C[C@@H]1C	-0.5

Rewritten field by field: part of the list above.
SMILES: CO[C@@H]1CN(C)C(=O)c2ccc(NC(C)=O)cc2OC[C@H](C)N(Cc2ccccn2)C[C@H]1C
- MLL AF4-AF9 inh: -2.0
SMILES: CO[C@@H]1CN(C)C(=O)c2cc(NC(=O)C3CCCC3)ccc2OC[C@H](C)N(C)C[C@@H]1C
- MLL AF4-AF9 inh: -0.5
SMILES: CC(C)OC(=O)N(C)C[C@H]1OCc2cnnn2CCCC(=O)N([C@@H](C)CO)C[C@@H]1C
- MLL AF4-AF9 inh: -1.4
SMILES: C[C@H]1CN([C@@H](C)CO)C(=O)c2cc(NC(=O)CCN3CCOCC3)ccc2O[C@@H]1CN(C)Cc1ccncc1
- MLL AF4-AF9 inh: -1.6

Next section.
SMILES	MLL AF4-AF9 inh
O=c1cc(-c2ccccc2)oc2cc(O)ccc12	-14.4
CCOC(=O)C1(C)CCN1C(=O)Cc1ccc(OC)cc1 (stereo not given)	-1.8
O=C1NC[C@@H](CCCCN2C[C@H](Cc3ccccc3)N(CCC3CCCCC3)C(=O)C2=O)N(CC2CCCCC2)C1=O	-2.7
O=C(NCC[C@@H]1CC[C@H](NS(=O)(=O)c2ccc(Oc3ccccc3)cc2)[C@@H](CO)O1)C1CC1	-2.3
COc1ccc(NC(=O)Nc2ccc3c(c2)CC(=O)N([C@@H](C)CO)C[C@H](C)[C@@H](CN(C)Cc2ccc(Oc4ccccc4)cc2)O3)cc1	-0.2
Cc1noc(C)c1S(=O)(=O)N(C)C[C@@H]1Oc2c(NS(=O)(=O)c3cccs3)cccc2C(=O)N([C@H](C)CO)C[C@@H]1C	-0.5
CCC(=O)N1CC(=O)N2[C@H](C1)[C@@H](c1ccc(C#Cc3cccc(F)c3)cc1)[C@@H]2CO	-6.5
Cc1ccc(S(=O)(=O)N(C)C[C@H]2OCCCC[C@H](C)Oc3ccc(NC(=O)Nc4cccc5ccccc45)cc3C(=O)N([C@@H](C)CO)C[C@@H]2C)cc1	2.0
Cn1nc(C(C)(C)C)cc1C(=O)N1CCCC(C)(C(=O)NS(=O)(=O)C2CC2)C1 (stereo not given)	1.0
CC(C)NC(=O)Nc1ccc2c(c1)C(=O)N([C@@H](C)CO)C[C@@H](C)[C@@H](CN(C)C(=O)Nc1ccc3c(c1)OCO3)OCCCC[C@@H](C)O2	1.9
CCC(=O)N(C)C[C@H]1Oc2cc(C#C[C@@H](C)O)ccc2S(=O)(=O)N([C@H](C)CO)C[C@H]1C	0.1
Cc1noc(C)c1C(=O)N(C)C[C@H]1OCc2ccccc2-c2ccccc2C(=O)N([C@@H](C)CO)C[C@@H]1C	-1.5
COc1cccc(NC(=O)C[C@@H]2CC[C@H]3[C@H](COc4ccc(NC(=O)C5CCCCC5)cc4C(=O)N3C)O2)c1	0.0
CN1CCN(C(=O)C[C@@H]2CC[C@H](NC(=O)Nc3ccccc3F)[C@@H](CO)O2)CC1	1.0
COc1cccc(-c2cnc3c(c2)C(=O)N([C@@H](C)CO)C[C@H](C)[C@@H](CN(C)Cc2ccc(C(=O)O)cc2)O3)c1	-2.7
C[C@@H]1CN([C@H](C)CO)S(=O)(=O)c2ccc(Br)cc2O[C@H]1CN(C)Cc1cncnc1	7.0
C[C@H]1CN([C@@H](C)CO)C(=O)c2cc(C#CC3CC3)cnc2O[C@H]1CN(C)S(C)(=O)=O	-4.2
CC1(C(=O)NS(=O)(=O)c2ccc(Cl)cc2)CCN1C(=O)CC1CC1 (stereo not given)	0.7
CCCNC(=O)Nc1ccc2c(c1)C(=O)N(C)C[C@H](OC)[C@H](C)CN(C(=O)c1ccccc1F)[C@H](C)CO2	-14.6
COc1ccc(S(=O)(=O)N(C)C[C@@H]2Oc3ccc(NC(=O)Nc4c(C)noc4C)cc3CC(=O)N([C@@H](C)CO)C[C@H]2C)cc1	-1.0

Part of the list above in order of formula weight, falling:
SMILES	MLL AF4-AF9 inh
COc1ccc(NC(=O)Nc2ccc3c(c2)CC(=O)N([C@@H](C)CO)C[C@H](C)[C@@H](CN(C)Cc2ccc(Oc4ccccc4)cc2)O3)cc1	-0.2
COc1cccc(-c2cnc3c(c2)C(=O)N([C@@H](C)CO)C[C@H](C)[C@@H](CN(C)Cc2ccc(C(=O)O)cc2)O3)c1	-2.7
CCC(=O)N(C)C[C@H]1Oc2cc(C#C[C@@H](C)O)ccc2S(=O)(=O)N([C@H](C)CO)C[C@H]1C	0.1

(more compounds)
SMILES	MLL AF4-AF9 inh
Cc1noc(C)c1NC(=O)N(C)C[C@H]1OCCCC[C@H](C)Oc2ccc(NC(=O)C3CCCCC3)cc2C(=O)N([C@H](C)CO)C[C@@H]1C	-2.6
CCCN(C)C[C@H]1OCCCC[C@@H](C)Oc2ccc(NS(=O)(=O)c3cn(C)cn3)cc2C(=O)N([C@@H](C)CO)C[C@@H]1C	-6.0
Cc1ccc(S(=O)(=O)N(C)C[C@H]2Oc3c(NC(=O)C4CC4)cccc3C(=O)N([C@@H](C)CO)C[C@H]2C)cc1	0.0
C[C@@H]1CN([C@H](C)CO)C(=O)c2c(c3ccccc3n2C)-c2ccccc2CO[C@@H]1CN(C)C(=O)CCN(C)C	15.9
C[C@@H]1CN([C@H](C)CO)C(=O)CCCn2cc(nn2)CO[C@H]1CN(C)S(=O)(=O)c1cccs1	-0.2&-2.2
CC(C)CC#Cc1ccc([C@@H]2[C@@H](CO)N3CCCCN(S(=O)(=O)c4ccc(F)cc4)C[C@@H]23)cc1	-2.7
O=C(C[C@@H]1C[C@@H]2c3cc(NC(=O)C4CCC4)ccc3O[C@@H]2[C@H](CO)O1)NCC1CC1	-2.2
N#Cc1ccc(-c2ccc3c(c2)[C@@H]2[C@@H](CCN2S(=O)(=O)c2cccc(F)c2)[C@@H](CO)N3)cc1	1.2
CN(C)C(=O)C[C@@H]1CC[C@H](NC(=O)NC2CCCC2)[C@@H](CO)O1	5.8
COc1ccc(CN(C)C[C@@H]2Oc3ccc(NC(=O)Nc4ccc5c(c4)OCO5)cc3C(=O)N([C@@H](C)CO)C[C@H]2C)cc1	19.9
CN(C)C(=O)c1cccc(-c2ccc(C3[C@H]4CNC[C@@H]3N4CC3CCCCC3)cc2)c1 (stereo not given in full)	5.9&1.7
C[C@H](CO)N1C[C@H](C)[C@H](CN(C)C(=O)NC2CCCCC2)Oc2ccc(NC(=O)CCCN(C)C)cc2C1=O	-3.4
CC(C)NC(=O)N(C)C[C@@H]1OCCCC[C@@H](C)Oc2ccc(NC(=O)c3ccncc3)cc2C(=O)N([C@@H](C)CO)C[C@H]1C	-2.5
Cc1noc(C)c1NC(=O)N(C)C[C@H]1Oc2c(NS(C)(=O)=O)cccc2C(=O)N([C@H](C)CO)C[C@H]1C	-13.1
CO[C@H]1CN(C)C(=O)c2cc(NC(=O)NC3CCCCC3)ccc2OC[C@@H](C)N(CC2CCOCC2)C[C@H]1C	-17.5
C[C@H]1CN([C@@H](C)CO)C(=O)c2cccc(NC(=O)Nc3cccc4ccccc34)c2O[C@H]1CN(C)CC1CC1	7.6
O=C(C[C@H]1C[C@@H]2c3cc(NS(=O)(=O)c4ccc(F)cc4)ccc3O[C@@H]2[C@H](CO)O1)N1CCCCC1	-0.8
CN(C)CCCNC(=O)OC1CC2CC1[C@H]1CCCCN1C2=O (stereo not given in full)	3.7
C[C@@H]1CN([C@H](C)CO)C(=O)c2cc(NC(=O)CCC(F)(F)F)ccc2O[C@@H]1CN(C)Cc1ccc(C(=O)Nc2ccccc2N)cc1	0.0
CC(C)C#Cc1ccc2c(c1)O[C@@H](CN(C)C(=O)c1cnccn1)[C@@H](C)CN([C@H](C)CO)S2(=O)=O	0.4
CN(C)C(=O)c1cccc(-c2ccc(C3[C@@H]4CN(C(=O)Nc5ccccc5F)C[C@H]3N4)cc2)c1 (stereo not given in full)	-2.1&-2.3
CC=Cc1ccc2n(c1=O)C[C@H]1[C@H](CO)[C@@H](C(=O)NCC3CC3)[C@@H]2N1Cc1ccncc1 (mixture of isomers)	-2.3
O=C(C[C@H]1CC[C@H]2[C@@H](COC[C@H](O)CN2C(=O)Nc2ccc(F)cc2)O1)NC1CCC1	-9.4
COCC(=O)Nc1ccc2c(c1)[C@H]1C[C@H](CC(=O)NCc3ccccn3)O[C@H](CO)[C@H]1O2	-16.3
Cc1ccc(S(=O)(=O)Nc2ccc3c(c2)C(=O)N([C@H](C)CO)C[C@H](C)[C@@H](CN(C)Cc2ccc4c(c2)OCO4)O3)cc1	3.0
Cc1ccc(S(=O)(=O)CCC(=O)OCC(=O)Nc2sccc2C#N)cc1	-0.3
CN(C)C(=O)C[C@H]1C[C@H]2c3cc(NC(=O)c4ccc5c(c4)OCO5)ccc3O[C@H]2[C@H](CO)O1	8.8
CC1(Cc2ccc(C(F)(F)F)o2)C(=O)Nc2ccc(-c3cccc(C(F)(F)F)c3)cc21 (stereo not given)	-1.4
OC[C@@H]1CN(Cc2cccc(C(F)(F)F)c2)C[C@H](n2cnc3c(NCc4ccc(F)cc4)ncnc32)O1	-0.8
O=C(C1CCOCC1)N1CC(=O)N2[C@H](C1)[C@@H](c1ccc(/C=C/c3ccccc3)cc1)[C@@H]2CO	3.3
CCCOc1ccc(F)cc1-c1cc(C(=O)Nc2ccc(OC)cc2OC)[nH]n1	-0.2
COc1ccc(NC(=O)N(C)C[C@H]2OCc3ccccc3-c3c(n(C)c4ccccc34)C(=O)N([C@H](C)CO)C[C@H]2C)cc1	1.2
COCC(=O)N1[C@H](C#N)[C@H](c2ccccc2-c2cccc(F)c2)[C@@H]1CO	-2.9
C[C@H]1CN([C@@H](C)CO)C(=O)Cc2cc(NC(=O)Nc3cccc4ccccc34)ccc2O[C@@H]1CN(C)S(=O)(=O)c1ccccc1	-10.4
NC1(N2SC(S)=C3CCCC=C32)CCCCC1	13.2
COc1cccc(C#Cc2ccc([C@H]3[C@H]4CN(C(C)=O)CC(=O)N4[C@H]3CO)cc2)c1	-4.0
C[C@@H]1CN([C@@H](C)CO)C(=O)CCCn2cc(nn2)CO[C@@H]1CN(C)C(=O)Nc1ccc(N2CCN(C)CC2)cc1	7.1
C[C@@H]1CCCCO[C@H](CN(C)C(=O)CCCN(C)C)[C@H](C)CN([C@H](C)CO)C(=O)c2cc(NC(=O)CCC(F)(F)F)ccc2O1	-0.3
O=C(C1CC1)N1CC(=O)N2[C@H](C1)[C@H](c1ccc(C#CC3CCCC3)cc1)[C@@H]2CO	-0.6
CO[C@@H]1CN(C)C(=O)c2ccc(NC(=O)c3nc4ccccc4s3)cc2OC[C@@H](C)NC[C@H]1C	-2.2
Cc1cccc(CN2[C@H](CO)C=CS2(=O)=O)c1	-1.1
C[C@@H]1CN([C@H](C)CO)C(=O)c2cc(NS(=O)(=O)c3cccs3)ccc2O[C@@H]1CN(C)Cc1ccccc1	-4.4
COc1ccc(CN2C(=O)CCC2(C)c2nnnn2Cc2ccccc2)cc1 (stereo not given)	1.4
COc1ccc(S(=O)(=O)Nc2ccc3c(c2)C(=O)N([C@H](C)CO)C[C@H](C)[C@H](CN(C)C(=O)Nc2ccc(C(F)(F)F)cc2)O3)cc1	-0.1
O=S(=O)(CCNC1CC1)NC1CCCCC1	-3.8

An excerpt; count on the stated rates, not on these rows.
